Cruzain Triton: blocks cruzain activity in presence of Triton detergent | 0.43% of 200,000 active | Potency, µM, for inactives: max response, negative = inhibition, hits mostly inhibitors | purified cruzain, Z-FR-AMC fluorescence, 0.01% Triton | P25779; active = well fitted curve in the direction sought with a large enough effect; inconclusive = small, poorly fitted or top-dose-only effect, or another doubt; inactive = no such curve, though single readings can be large; an effect the other way counts as inactive or inconclusive;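 also: plate controls were neutral wells for no effect and buffer without enzyme for full effect; nearly all actives have a fitted effect of over 40% in size; top concentration of the series not given in the record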
Target sequence (P25779 123-467 limits assumed): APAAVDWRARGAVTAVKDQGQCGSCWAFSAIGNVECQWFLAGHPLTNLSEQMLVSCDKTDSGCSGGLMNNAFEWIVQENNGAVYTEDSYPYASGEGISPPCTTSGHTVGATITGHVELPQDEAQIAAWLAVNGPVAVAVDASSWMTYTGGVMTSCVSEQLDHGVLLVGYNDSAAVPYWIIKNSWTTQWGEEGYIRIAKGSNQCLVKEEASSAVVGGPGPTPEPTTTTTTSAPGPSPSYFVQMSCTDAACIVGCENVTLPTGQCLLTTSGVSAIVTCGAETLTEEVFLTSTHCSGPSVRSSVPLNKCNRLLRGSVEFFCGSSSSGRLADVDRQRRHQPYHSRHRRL
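Z-FR-AMC hydrolysis (2 uM substrate) by cruzain (1.5 nM) monitored kinetically at ex 360/em 450 nm after 15 min room-temperature compound exposure; 0.01% Triton X-100, pH 5.5, 5 mM DTT.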
RE007 growth inh: less growth of the S. pombe RE007 Vpr strain; S. pombe RE007 Vpr strain, BacTiter-Glo ATP luminescence, 24 h; control for the full effect not named in the record; 0.21% of 360,000 active; AID 651644; Potency, µM (doses to about 92.2 µM), without a hit: at the top dose activity change, negative = less growth; active = well fitted falling curve with a large enough effect; inconclusive = small, poorly fitted or top-dose-only effect; inactive = no such curve, though single readings can be large or run the other way;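 also: % is scaled to controls: 0 for no effect and ±100 for the full control effect; nearly all actives have a fitted effect of over 50% in size; the assay follows cell death caused by Vpr and the record does not say whether a fall means rescue or toxicity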
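Fission yeast strain RE007, carrying one chromosomally integrated HIV-1 vpr copy, was seeded at OD 0.01 in PMG+AL medium with 23 nL pinned compound. After 24 h at 30 °C and 99% humidity, viability was read by BacTiter-Glo luminescence.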
SARS PLP yeast: SARS-CoV PLP inhibition in yeast. S. cerevisiae expressing SARS-CoV PLpro, growth rescue; control for the full effect not named in the record. Potency, µM (highest dose often 32.9 µM), for the others: top-dose activity, positive = growth rescue. 0.19% of 330,000 active. AID 485353; also: 0% is about no effect; nearly all actives have a fitted effect of over 55% in size; growth read by luminescence after 48 h
Marburg entry inh: inhibitors of Marburg virus binding or cell entry; Marburg virus pseudotyped entry inhibition, cell reporter; control for the full effect not named in the record; about a third of the inactives were read at about 46 µM; Potency, µM (top dose mostly 37.8 µM), without a hit: top-dose activity change, negative = inhibition, hits mostly inhibitors; 1.8% of 300,000 active; AID 540276; active = well fitted inhibition curve with a large enough effect; inconclusive = small, poorly fitted or top-dose-only effect, or effect the other way; inactive = flat fitted curve, though single readings scatter; tested in HEK293 cells; about a fifth of its hits are not listed in these tables; also: % is scaled to controls: 0 for no effect and ±100 for the full control effect; luciferase read-out
Cruzain inh noDet: inhibitors of Trypanosoma cruzi cruzain without detergent | P25779 | purified cruzain, Z-FR-AMC fluorescence, no detergent | Potency, µM, without a hit: max response, negative = inhibition, hits mostly inhibitors | 2.3% of 200,000 active; active = well fitted curve in the direction sought with a large enough effect; inconclusive = small, poorly fitted or top-dose-only effect, or another doubt; inactive = no such curve, though single readings can be large; an effect the other way counts as inactive or inconclusive;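 also: plate controls were enzyme without inhibitor for no effect and buffer without enzyme for full effect; nearly all actives have a fitted effect of over 40% in size; top concentration of the series not given in the record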
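Purified cruzain at 1.5 nM, pre-incubated 15 min with compound at room temperature in 100 mM sodium acetate pH 5.5, 5 mM DTT, 0.00005% Triton X-100. Reaction started with 2 uM Z-FR-AMC; AMC fluorescence increase over 60 s gives rate.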
NS1 inh: blocks influenza NS1 protein function | S. cerevisiae slowed by influenza A NS1, growth recovery by OD600 | Potency, µM (top dose mostly 46.1 µM), for inactives: top-dose activity, positive = more growth | 0.4% of 270,000 active | AID 2326; also: actives are rising curves; nearly all actives have a fitted effect of over 50% in size
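OD600 was taken as the measure of yeast growth restored by compound in an NS1-expressing S. cerevisiae strain. Cells had been washed out of glucose medium and diluted 1:100 into galactose -URA medium, pH 6.0.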
2A StopGo: lowers the luciferase signal of an FMDV 2A StopGo reporter. human cells with a luciferase reporter of 2A StopGo recoding; control for the full effect not named in the record. Potency, µM (series often up to 57.9 µM), for inactives: at the top dose signal change, negative = less light. 1.2% of 410,000 active; active = well fitted falling curve with a large enough effect; inconclusive = small, poorly fitted or top-dose-only effect; inactive = no such curve, though single readings can be large or run the other way; tested in HEK293T cells; also: % is scaled to controls: 0 for no effect and ±100 for the full control effect; nearly all actives have a fitted effect of over 45% in size; luciferase light after 4 h
LASV entry inh: inhibitors of Lassa virus binding or cell entry. Lassa virus pseudotype entry inhibition, cell reporter; control for the full effect not named in the record. Potency, µM (highest dose often 37.9 µM), for inactives: at the highest dose activity change, negative = inhibition, most hits filed as inhibitors. 1.2% of 300,000 active. AID 540256; active means well fitted inhibition curve with a large enough effect; inconclusive means small, poorly fitted or top-dose-only effect, or effect the other way; inactive means flat fitted curve, though single readings scatter; tested in HEK293 cells; also: % is scaled to controls: 0 for no effect and ±100 for the full control effect; nearly all actives have a fitted effect of over 50% in size; luciferase read-out
* marks the source's active call; other numbers are inactive results; u = inconclusive; x = not tested or not shown; & = joins results of further samples; [ ] = remark or other dose. Unless noted, calls follow the shape of the dose curve; as a rule, active means well fitted rising curve with a large enough effect; inconclusive means small, poorly fitted or top-dose-only effect; inactive means no such curve, though single readings can be large or run the other way. Potency is read from the fitted curve at half-maximal effect.

SMILES	Cruzain Triton	RE007 growth inh	SARS PLP yeast	Marburg entry inh	Cruzain inh noDet	NS1 inh	2A StopGo	LASV entry inh
CCCOc1ccc(CN(C(=O)c2cccc(OC)c2)C2CCS(=O)(=O)C2)cc1 (stereo not given)	x	-8%	3%	6%[46.1 µM]	x	-6%	-7%	-26%[46.1 µM]
CCC(CC)NC(=O)COC(=O)CCC(=O)c1cccs1	0.8%	21%	u	x	-8%	4%	2%	x
Cc1cc(/C=C2/NC(=O)N(Cc3ccccc3F)C2=O)c(C)n1C(C)C	-11%	-24%	u	u	25µM*	-4%	1%	-20%
CC(C)c1cc(-c2cc(-c3ccc(Cl)cc3)on2)nc(NCC2CC2)n1	x	10%	0%	x	x	14%	-16%	x
COc1ccc2c(c1)c(C(C)=O)c(C)n2C	x	21%	-1%	u	x	-4%	-11%	20%
O=C(COc1cccc2cccnc12)N1CCc2ccccc2C1	8.8%	-13%	-6%	7%	-2%	-9%	2%	-9%
O=C(O)c1ccc(Cl)c(NCc2cccs2)c1	x	6%	1%	-8%	x	-45%	-8%	18%
COc1cccc(=O)c2c(C)n(-c3ccc(C(=O)O)cc3)c(C)c12	x	-2%	1%	16%[46.1 µM]	x	14%	13%	4%
Cc1cccc2cc3c(nc12)-c1ccccc1C3=O	x	-5%	2%	x	x	-4%	36%[activator]	x
Cc1ccc(-c2csc(NNC(=O)c3ccccc3)n2)cc1	-0.5%	48%	18%	u	u	22%	14%	u
Cc1ccc(C(=O)/C=C/Nc2ccccn2)cc1	x	u	x	u	x	x	2.5µM*	0.63µM*
c1ccc(COc2ccc(OCCCn3cncn3)cc2)cc1	-1.4%	-13%	-13%	u	8%	-65%	-8%	-9%
COC(=O)COc1ccc(C)cc1-n1nc2ccccc2n1	x	4%	-6%	11%[46.1 µM]	x	-82%	-12%	-2%[46.1 µM]
Cc1ccccc1-n1c(SCC(=O)c2cc(C)n(C)c2C)nnc1-c1ccncc1	-6.4%	-4%	-2%	u	u	6%	35µM*	u
O=C(CN1C(=O)NC2NC(=O)NC21)N/N=C/c1ccccc1O (stereo not given)	x	2%	0%	11%[46.1 µM]	x	x	1%	14%
Cc1ccc(N(C(=O)c2csnn2)C(C(=O)NC(C)(C)C)c2cccnc2)cc1C (stereo not given)	x	10%	1%	0%[46.1 µM]	x	-5%	1%	1%[46.1 µM]
Cc1ccc(CNC(=O)CSc2ccc(-c3cccs3)nn2)cc1	-3.0%	31%	19%	-7%	0%	1%	-5%	10%
Cc1cccc(N2CCN(C(=O)Cn3c(C)c4cnn(-c5ccccc5)c(=O)c4c3C)CC2)c1C	-8.7%	x	x	-12%[46.1 µM]	4%	x	28µM*	u
CCOC(CNC(=O)CCc1c(C)nc2ncnn2c1C)OCC	6.1%	1%	1%	21%	-1%	5%	21%	-4%
O=C(O)c1cccc(OCc2ccccc2Cl)c1	3.2%	10%	-23%	u	-10%	-121%	-23%	u
COc1ccc(/C(N)=N/OC(=O)c2ccc(OC)c([N+](=O)[O-])c2)cc1OC	x	9%	-1%	u	x	0%	0%	u
COc1cc(OC)c2c(-c3cccc(-c4ccc(O)cc4)c3)cc(=O)oc2c1	0.2%	16%	1%	x	u	x	u	x
COc1ccccc1-n1c(SCC(=O)NC2CCS(=O)(=O)C2)nc2cc([N+](=O)[O-])ccc21 (stereo not given)	-2.0%	5%	-4%	4%	u	-4%	-24%	2%
Cc1ccc(NC(=O)CC(C)S(=O)(=O)c2ccc3c(c2)NC(=O)CO3)cc1C (stereo not given)	x	0%	-1%	x	x	-4%	-14%&-18%	9%[46.1 µM]
COc1ccc(-n2cc(-c3ccccc3)c3c(NCCCN4CCOCC4)ncnc32)cc1	x	2%	1%	u	x	x	u	-15%

An excerpt of these results, with two lines to a compound.
Each structure is followed by: Cruzain Triton	RE007 growth inh	SARS PLP yeast	Marburg entry inh	Cruzain inh noDet	NS1 inh	2A StopGo	LASV entry inh
Cc1ccc(N(C(=O)c2csnn2)C(C(=O)NC(C)(C)C)c2cccnc2)cc1C (stereo not given)
    x	10%	1%	0%[46.1 µM]	x	-5%	1%	1%[46.1 µM]
CCC(CC)NC(=O)COC(=O)CCC(=O)c1cccs1
    0.8%	21%	u	x	-8%	4%	2%	x

Other entries:
SMILES	Cruzain Triton	RE007 growth inh	SARS PLP yeast	Marburg entry inh	Cruzain inh noDet	NS1 inh	2A StopGo	LASV entry inh
COc1cccc(NC(=O)C2CCC(CNC(=O)[C@@H]3Cc4ccccc4CN3)CC2)c1 (stereo not given in full)	x	-11%	0%	x	x	-4%	-13%	x
O=C(Nc1ncc(Cc2ccccc2)s1)C1CCCO1 (stereo not given)	-0.5%	-5%	-24%	u	0%	-11%	18%	15µM*
N#Cc1ccc(NC(=O)COC(=O)CSc2nnc(-c3ccc(Cl)cc3)o2)cc1	-7.1%	6%	-28%	-17%	2%	-2%	-11%	14%
Cc1ccc(N(C(=O)CNC(=O)c2ccco2)C(C(=O)NC2CCCC2)c2ccncc2)c(C)c1 (stereo not given)	x	34%	0%	1%[46.1 µM]	x	-29%	-6%	30%[46.1 µM]
Cc1ccccc1NC(=O)c1c(NC(=O)c2ccncc2)sc2c1CCC(C(C)(C)C)C2 (stereo not given)	-1.6%	x	x	-11%[46.1 µM]	5%	x	u	-2%[46.1 µM]
Cc1ccccc1OCc1nc2c3c(ncn2n1)-c1ccccc1CC31CCCC1	-3.0%	6%	23%	29%	-24%	1%	u	1%
O=C(NCCOc1cccc(Oc2ccccc2)c1)c1cc(-n2cnnc2)ccc1Cl	-1.5%	20%	u	-11%	u	2%	u	-6%
CCC(C)(C)n1nnnc1C(c1cc2ccc(C)cc2[nH]c1=O)N(Cc1cccnc1)Cc1ccco1 (stereo not given)	-7.5%	11%	-3%	u	22%	-32%	x	-13%
CCN(CC(=O)Nc1ccc(OC)cc1)C(=O)c1cc(S(=O)(=O)N(C)C)ccc1N1CCCC1	x	3%	11%	5%[46.1 µM]	x	x	-11%	-1%
CCCC1NC(=O)NC(C)=C1C(=O)OCC (stereo not given)	2.9%	5%	-4%	-8%	5%	2%	-13%	10%
Cc1cc(C)cc(NC(=O)COc2coc(CN3CCN(c4ccccc4)CC3)cc2=O)c1	x	-2%	2%	-5%	x	x	0%	-8%
O=c1[nH]c2c(s1)C=Nc1ccccc1N2	-1.0%	-11%	3%	18%	-2%	2%	50%[activator]	15%
CNC(=O)C1CCC(Cn2c(=O)c3sccc3n(CC(=O)Nc3ccc(C)cc3C)c2=O)CC1 (stereo not given)	-1.5%	x	x	x	-2%	x	0%	17%[46.1 µM]
Cc1noc(NS(=O)(=O)c2ccc(NC(=O)CSc3nc4ccccc4s3)cc2)c1C	-13%	-10%	-6%	2%	16%	-37%	x	6%
N#Cc1ccc(CO/N=C/c2ccccc2)cc1	x	41%	1%	u	x	x	33%[activator]	-1%
O=[N+]([O-])c1cccc2c(N3CCCC3)ccnc12	x	-12%	-1%	u	x	2%	u	u
N#Cc1c(C#N)c(-c2ccccc2)n(-c2ccccc2)c1N	-9.9%	-4%	7%	-29%	-5%	-1%	u	u
CCOC(=O)CCn1cc(F)c(=O)[nH]c1=O	x	13%	-1%	23%[46.1 µM]	x	0%	-11%	18%
COc1ccc(OCC(=O)NCc2n[nH]c(=O)c3ccccc23)cc1	x	-4%	-2%	6%[46.1 µM]	x	x	-2%	-1%
CCN(CC)S(=O)(=O)c1ccc2c(c1)N(CC(=O)NCc1ccccc1)C(=O)C1CCCCN21 (stereo not given)	-5.5%	x	x	x	1%	x	0%	u
COc1ccccc1CN1C[C@@H]2C[C@@H](c3cccc(C)n3)N3CCC[C@@]23C1=O	x	0%	1%	1%[46.1 µM]	x	2%	-9%	8%[46.1 µM]
COc1ccc(/C=C(/CC(=O)NCc2ccc(Cl)cc2)c2nc3ccccc3s2)cc1	-6.3%	13%	-26%	-6%	32µM*	-18%	12%	u
COc1cccc(CNC(=O)c2ccc(NC(=O)C3CCCO3)cc2)c1 (stereo not given)	1.2%	4%	-2%	3%	0%	-3%	6%	9%
CN1C(=O)/C(=C\c2cc(N=Nc3ccccc3)ccc2O)SC1=S	-2.1%	-24%	-1%	1%	25µM*	-3%	u	-1%
Cc1ccc(CNC(=O)C2CC(=O)N(C3CCCC3)C2)cc1 (stereo not given)	x	-10%	-3%	2%	x	x	-20%	9%
CCc1nnc(NC(=O)c2ccc(S(=O)(=O)N(CC)CC)cc2)s1	-0.8%	-9%	-2%	x	1%	-1%	-15%	x
CCOc1ccccc1NC(=O)C(OC(=O)c1ccccc1)c1ccccc1 (stereo not given)	-7.2%	-6%	2%	-2%	1%	-16%	23%	2%
CCCCn1c(N)c(N(CC(C)C)C(=O)CSc2ccccc2C)c(=O)[nH]c1=O	x	-2%	0%	-2%	x	x	0%	-5%

Record cards, from the list above. Values in the order: Cruzain Triton	RE007 growth inh	SARS PLP yeast	Marburg entry inh	Cruzain inh noDet	NS1 inh	2A StopGo	LASV entry inh
`COc1ccccc1CN1C[C@@H]2C[C@@H](c3cccc(C)n3)N3CCC[C@@]23C1=O` across the screens: x	0%	1%	1%[46.1 µM]	x	2%	-9%	8%[46.1 µM]
`CN1C(=O)/C(=C\c2cc(N=Nc3ccccc3)ccc2O)SC1=S` across the screens: -2.1%	-24%	-1%	1%	25µM*	-3%	u	-1%
`O=[N+]([O-])c1cccc2c(N3CCCC3)ccnc12` across the screens: x	-12%	-1%	u	x	2%	u	u
`CNC(=O)C1CCC(Cn2c(=O)c3sccc3n(CC(=O)Nc3ccc(C)cc3C)c2=O)CC1` (stereo not given) across the screens: -1.5%	x	x	x	-2%	x	0%	17%[46.1 µM]
`Cc1noc(NS(=O)(=O)c2ccc(NC(=O)CSc3nc4ccccc4s3)cc2)c1C` across the screens: -13%	-10%	-6%	2%	16%	-37%	x	6%

Screening results: PubChem BioAssay, National Center for Advancing Translational Sciences (NCATS)
